# Screening results as filed in PubChem.
# ClpP mod: qHTS Assay for Activators of ClpP; ATP-dependent Clp protease proteolytic subunit (Bacillus subtilis (strain 168)), P80244; purified B. subtilis ClpP, FRET peptide cleavage, 20 min; Potency, µM (doses to about 57.5 µM), for the others: at the highest dose activity change, negative = active; 1.9% of 340,000 active; AID 651965, 2013; active = well fitted falling curve with a large enough effect; inconclusive = small, poorly fitted or top-dose-only effect; inactive = no such curve, though single readings can be large or run the other way; also: potency is read from the fitted curve at half-maximal effect; the source files actives as falling curves though it sought activators and does not explain the sign; nearly all actives have a fitted effect of over 65% in size; many hits overshoot -100%
# Target sequence (P80244 whole entry, looked up): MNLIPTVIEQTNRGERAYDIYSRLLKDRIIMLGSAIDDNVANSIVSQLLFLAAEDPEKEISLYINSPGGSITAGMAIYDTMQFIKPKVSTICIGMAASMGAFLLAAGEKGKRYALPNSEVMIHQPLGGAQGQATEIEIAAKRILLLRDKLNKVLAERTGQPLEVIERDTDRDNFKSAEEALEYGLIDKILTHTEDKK
#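 Buffer: 100 mM Tris/HCl pH8, 100 mM KCl, 0.05% low protease BSA, 2.5% glycerol, 0.01% Tween-20. ClpP 10 microg/mL final; 20 min RT; delta FRET normalized to ADEP and DMSO controls.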
# TRPML1 blocker: qHTS for Inhibitors of the Human Mucolipin Transient Receptor Potential 1 (TRPML1); 0.02% of 390,000 active; activity change, negative = inhibition, % (no concentration beside the values); TRPML1-inducible cells, Ca2+ dye fluorescence, FDSS; stronger effect = lower value; inhibition of EC80 agonist-evoked calcium signal; in the data active means activity change below about -50%; inconclusive means about -30% to -50%; inactive means above about -30%;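 also: stimulus is agonist 54-4 at its EC80 concentration; % is scaled to controls: 0 for no effect and ±100 for the full control effect; compound concentration not given in the record; the text of the record puts the active cut at -80%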
#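 Calcium fluorescence in TRPML1-DL cells induced overnight with Tet: a 110 s read after compound pin addition, then a 110 s antagonist read after challenge with 54-4 at 4 uM final (EC80).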
# Menin MLL FP FL: qHTS Assay for Inhibitors Targeting the Menin-MLL Interaction in MLL Related Leukemias: Competition With Fluorescein Labeled MLL-derived Peptide. 290,000 tested, under 10 active. FP activity change, % at 61.4 µM. Fluorescence polarization, fluorescein-MLL peptide displacement from menin; inconclusive = falling polarisation curve, or a change in total fluorescence; inactive = total fluorescence flat and polarisation flat or rising; no compound was filed as active; the % refers to the polarisation; negative = inhibition;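 also: % of control where 0% means no effect; inhibitors lower the polarisation; unlabelled MLL peptide was the positive control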
# PINK1 expr mod: A Quantitative High throughput Screen to Identify Chemical Modulators of PINK1 Expression; 0.2% of 410,000 active; Potency, µM (highest dose often 76.6 µM), inactives show at the top dose activation (PINK1 increase), usual class: activators; PINK1 immunofluorescence, high-content cytometry, 24 h; AID 624263, 2012; active = well fitted activation curve with a large enough effect; inconclusive = small, poorly fitted or top-dose-only effect; inactive = flat fitted curve, though single readings scatter; cell line not stated here;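 also: potency is read from the fitted curve at half-maximal effect; % of control where 0% means no effect; nearly all actives have a fitted effect of over 65% in size; a mitochondrial uncoupler was the plate control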
#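 Stable cell line treated 24 h with compounds at 5 concentrations (CCCP controls), then fixed and immunostained for PINK1 plus nuclear and cell stains; PINK1 immunofluorescence quantified by laser-scanning microplate cytometry.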
# Sfp inh: qHTS Assay for Inhibitors of Bacillus subtilis Sfp phosphopantetheinyl transferase (PPTase) | 4'-phosphopantetheinyl transferase ffp (Bacillus subtilis), Q9F4F7 | Biochemical Sfp PPTase activity, qHTS | Potency, µM, inactives show max response, negative = inhibition, hits mostly inhibitors | 3.5% of 310,000 active; active = well fitted inhibition curve with a large enough effect; inconclusive = small, poorly fitted or top-dose-only effect, or another doubt; inactive = no such curve, though single readings can be large or run the other way;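 also: the enzyme is Sfp with the accession as filed and its product quenches rhodamine fluorescence; potency is read from the fitted curve at half-maximal effect; 0% = enzyme reaction without inhibitor and -100% = no enzyme wells; top concentration of the series not given in the record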
#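 Buffer: 50 mM Hepes-Na pH 7.6, 10 mM MgCl2, 0.01% Nonidet P-40, 0.01% BSA. Enzyme 15 nM, pre-exposed to compound 15 min; substrates then added and fluorescence change tracked over 30 min.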
# TRPV1 PAM: HTS Assay for Compounds that Act as Potentiators of the Vanilloid Receptor 1. Transient receptor potential cation channel subfamily V member 1 (Homo sapiens), Q8NER1. 0.02% of 320,000 active. TRPV1-expressing cells, Fluo-8 calcium influx, capsaicin EC20 potentiation; host cell line not named in the record; control for the full effect not named in the record. potentiation, % at 8.33 µM. AID 540277, 2011; active means potentiation above 80%; inconclusive means 30% to 80%; inactive means below 30%; also: 0% is about no effect
# Target sequence (Q8NER1 whole entry, looked up): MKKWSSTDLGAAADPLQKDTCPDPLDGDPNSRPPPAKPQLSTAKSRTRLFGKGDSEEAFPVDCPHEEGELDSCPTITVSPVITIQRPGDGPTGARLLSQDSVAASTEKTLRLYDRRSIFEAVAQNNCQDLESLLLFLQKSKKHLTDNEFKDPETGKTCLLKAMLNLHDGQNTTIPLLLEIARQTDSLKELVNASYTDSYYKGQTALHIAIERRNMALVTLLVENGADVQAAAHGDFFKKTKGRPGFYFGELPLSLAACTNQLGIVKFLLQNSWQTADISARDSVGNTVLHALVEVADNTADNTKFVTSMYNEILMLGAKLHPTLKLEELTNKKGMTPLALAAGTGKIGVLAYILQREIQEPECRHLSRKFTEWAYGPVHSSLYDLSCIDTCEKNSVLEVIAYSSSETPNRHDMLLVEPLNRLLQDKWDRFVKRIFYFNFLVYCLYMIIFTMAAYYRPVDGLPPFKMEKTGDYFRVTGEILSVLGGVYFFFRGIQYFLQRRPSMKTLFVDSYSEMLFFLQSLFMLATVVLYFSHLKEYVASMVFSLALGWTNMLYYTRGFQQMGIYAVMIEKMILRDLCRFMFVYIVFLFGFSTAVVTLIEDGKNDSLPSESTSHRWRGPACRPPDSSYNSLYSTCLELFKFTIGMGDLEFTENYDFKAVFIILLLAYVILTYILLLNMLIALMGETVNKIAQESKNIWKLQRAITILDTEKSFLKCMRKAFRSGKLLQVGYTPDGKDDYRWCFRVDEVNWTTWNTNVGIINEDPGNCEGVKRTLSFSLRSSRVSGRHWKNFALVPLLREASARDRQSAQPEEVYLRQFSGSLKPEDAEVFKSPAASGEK
#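 TRPV1-expressing cells were cultured overnight at 35.5C and loaded with Fluo-8 calcium dye for 40 to 90 min at room temperature. After a 10 s baseline, compound was added and calcium influx was read kinetically for 3 min (ex 480/em 520 nm).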
# TRPML1 agonist: qHTS for Agonists of the Human Mucolipin Transient Receptor Potential 1 (TRPML1); activation, % (test concentration not listed); 0.12% of 410,000 active; TRPML1-expressing cells, Ca2+ dye fluorescence, FDSS; host cell line not named in the record; reference of the full effect not given here; AID 624414, 2012; Mucolipin-1 (Homo sapiens), Q9GZU1; in the data active = activation above about 50%; inconclusive = about 30% to 50%; inactive = below about 30%; also: 0% is about no effect; the text of the record puts the active cut at 80%
#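 Calcium fluorescence on an FDSS kinetic reader gave the read-out. Tet-induced TRPML1-DL cells were plated overnight, dye-loaded (Ca8 with quencher, 45-90 min, room temperature, dark), then read 110 s after compound addition, and again 110 s after 4uM final 54-4 (EC80).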
# An asterisk follows results filed as active; ? = inconclusive; . = not tested or not shown; [ ] = dose if it differs, or a comment.
# Value order – TRPV1 PAM, PINK1 expr mod, Menin MLL FP FL, Sfp inh, ClpP mod, TRPML1 agonist, TRPML1 blocker
O=C(c1cc(COc2ccc(F)cc2F)on1)N1CC2C[C@@H]3CC1C[C@H](C2)C3
→ -13, ?, 2.5, -2%, -2.0%, 4.9, 30
O=C(Nc1ccccn1)C1CCN(S(=O)(=O)c2ccc3ccccc3c2)CC1
→ 6, -0.8%, ., ., ., 2.3, 10
COC(=O)c1ccc(/C=C/C(=O)c2ccc(OC)c(OC)c2)cc1
→ -3, -2.0%, 4.1, -5%, -5.7%, -0.6, -1
Cc1cccc2nc(CSc3nc4[nH]ncc4c(=O)n3-c3cccc(Cl)c3)cc(=O)n12
→ 5, -0.1%, 0.4, -15%, 0.4%, 0.8, 13
CCc1nnc(NC(=O)C2CCC(CNc3c(N4CCC(C)CC4)c(=O)c3=O)CC2)s1 (stereo not drawn)
→ -3, -1.1%, -11, 14%, ., -0.2, -4
CCOc1ccccc1N(CC(=O)Nc1ccc(OC)cc1)S(=O)(=O)c1ccccc1
→ 1, 9.9%, 3.9, 12%, -1.9%, ., .
COc1ccc(C(C)=O)cc1CSc1nnc(Nc2c(C)cccc2C)s1
→ 3, -0.2%, 2.9, 0%, 0.3%, 0.5, -25
Cc1ccc(CNC(=O)CSc2cc(C)[nH]c(=O)n2)cc1
→ ., 4.7%, ., ., -0.8%, -0.5, -2
CC(C)C(C)(C#N)NC(=O)CSc1nc2scc(-c3ccco3)c2c(=O)n1-c1ccccc1 (stereo not drawn)
→ 5, -1.6%, 13, 7.9µM*, 30%, 0.4, 15
Cc1c(C(=O)NC2CC(C)(C)NC(C)(C)C2)oc2c(Cl)cccc12
→ ., -1.2%, ., ., -8.1%, -0.1, -2
COCC(C)n1c(C)cc(C(=O)COC(=O)CNC(=O)c2ccccc2)c1C (stereo not drawn)
→ -4, 0.3%, 5.7, 7%, 0.6%, -0.4, 4
CCCCOc1ccccc1NC(=O)c1ccco1
→ 24, -1.9%, 2.7, -2%, 13µM*, -0.3, -11
O=C(Oc1ccc2c(c1)OCO2)c1ccc(F)cc1Cl
→ -10, -4.7%, -0.7, -5%, 0.2%, 0.6, 3
CCn1cnc2scc(-c3ccc(C)c(C)c3)c2c1=O
→ -4, 1.0%, -2.5, -9%, -1.8%, 0.6, 41
COc1ccc(C(=O)C2CCN(CC(=O)Nc3ccccc3F)CC2)cc1
→ -3, 1.2%, ., 13%, ., 0.4, 7
CC(=O)Nc1ccc(S(=O)(=O)N2CCC3(CC2)OCCO3)cc1
→ ?, 1.7%, ., 12%, 0.8%, -0.9, 5
OC1CCCN(CC(O)c2ccccc2)C1 (stereo not drawn)
→ -5, -1.6%, 0.7, ?, 1.5%, -0.3, 9
COc1ccc(CCN2C(=O)CC(NNc3ccc([N+](=O)[O-])cc3)C2=O)cc1OC (stereo not drawn)
→ -13, -0.7%, 0.3, 1%, ., -0.4, -10
O=C(NCC(=O)N(c1cnc2ccccc2c1)C(C(=O)NC1CCCC1)c1ccncc1)c1ccco1 (stereo not drawn)
→ 1, 1.0%, -1.5, 8%, -3.7%, -0.3, 9
CCOC(=O)c1sc2nc(C)nc(NC3CCC(O)CC3)c2c1C (stereo not drawn)
→ -5, 2.5%, 0.8, 19%, ., 0.4, -3
CCN(CC(=O)Nc1ccc(NC(C)=O)cc1)C(=O)c1c(-c2c(F)cccc2Cl)noc1C
→ 14, -1.1%, ., 12%, 0.6%, 1.1, -1
NC(Cc1ccc(C(F)(F)F)cc1)c1csc(Nc2nccc(C(F)(F)F)n2)n1 (stereo not drawn)
→ ., -1.4%, ., ., -1.7%, 2.5, .
Cc1nc(C(=O)O)nn1-c1ccc([N+](=O)[O-])cc1
→ -3, 1.8%, -3.2, 21%, ., 1.4, -6
CCOC(=O)CCSc1cc(C)c2ccccc2n1
→ 12, 2.9%, -0.9, -4%, -2.0%, 0.1, 35
Nc1nc2ccc(Cl)cc2[nH]1
→ ., 2.0%, ., ., ., -0.5, 3
O=S(=O)(N/N=C1/CC(c2ccccc2)Oc2ccccc21)c1ccc(Br)cc1 (stereo not drawn)
→ 13, -2.0%[38.3 µM], 5.0, 7%, -2.3%, 0.2, -6
CCSC1=C(C#N)C2(CCCCC2)C(C#N)C(=O)N1 (stereo not drawn)
→ 5, -1.1%, 4.0, 13%, 0.6%, 0.8, -2
CC(C)(C)c1cc(CCC(=O)N2CCCC2)cc(C(C)(C)C)c1O
→ 22, -0.9%, ., 12%, -3.0%, 0.5, -19
COc1cn(-c2ccccc2)nc1C(=O)NCc1ccccc1
→ 5, 1.5%, 3.7, -10%, ., 0.8, 26
CCN(CC(=O)Nc1ccc(OC)cc1)C(=O)c1cc(S(=O)(=O)N2CCOCC2)ccc1N1CCCC1
→ 1, -6.0%, ., ., -9.8%, 1.0, -1
N#C/C(=C\c1c(N2CCC(C(N)=O)CC2)nc2ccccn2c1=O)S(=O)(=O)c1ccc(Cl)cc1
→ 24, -0.3%, 7.1, 4%, ., 0.7, 16
COC(=O)c1ccc2nc(-c3ccccc3)c(Cc3ccc(C)cc3)n2c1
→ ., 24%, ., ., 5.3%, 0.7, .
Cc1nc2ccccn2c1C(=O)N/N=C/c1ccc([N+](=O)[O-])o1
→ 3, -0.1%, 0.9, -16%, 1.3%, 0.7, -14
CC(C)NS(=O)(=O)c1ccc(OCC(=O)NCc2ccccc2)cc1
→ 11, -1.0%, -3.7, 11%, 3.5%, -0.7, 3
Cc1ccccc1CC1(CO)CCCN(Cc2c(C)nn(C)c2Cl)C1 (stereo not drawn)
→ -9, 2.3%, -1.1, -10%, ., -0.5, -8
Cc1cc(C)n(-c2cc(N3CCN(S(=O)(=O)c4ccc(Br)cc4)CC3)ccc2[N+](=O)[O-])n1
→ -11, -1.0%, ., 9%, -2.0%, 1.9, -8
Cc1ccc(NC(=O)NCCc2c(C)nn(C)c2C)c(Cl)c1
→ ., -0.2%, ., ., -1.1%, -0.7, -7
COCC(=O)N1CCC2(CCCN(Cc3cc(C(F)(F)F)cc(C(F)(F)F)c3)C2)CC1
→ ., 0.8%, ?, 12%, ., ., .
CCc1c(C)c(C#N)c2nc3ccccc3n2c1-n1nc(C)cc1C
→ 4, 1.0%, -0.5, 13%, -4.0%, -0.1, -4
CCCn1cnc2sc(C(N)=O)c(C)c2c1=O
→ 0, -1.0%, -0.8, 4%, -0.9%, -0.2, -7
CC(=O)C1=C(O)C(=O)N(C)C1c1ccccc1F (stereo not drawn)
→ 3, 1.0%, 5.2, 6%, -3.5%, -0.1, -25
COc1ccc(C2C(C(=O)N3CCCC3)c3cc(OC)c(OC)cc3C(=O)N2C)cc1 (stereo not drawn)
→ 3, 6.6%, 0.6, 10%, -4.9%, -0.3, 14
Fc1ccc(-c2cn(-c3ccccc3)c3[n+]2CCS3)cc1
→ -4, 1.3%, -3.1, 13%, ., -0.9, 37
O=C(NC1CCCC1)c1ccc2c(c1)N(Cc1ccc(C(F)(F)F)cc1)C(=O)c1ccccc1S2
→ ., 0.3%, ., ., -0.3%, -0.1, 20
COc1ccc(NC(=O)COC(=O)CO/N=C(\C)c2ccc3c(c2)OCO3)cc1S(N)(=O)=O
→ -5, -1.4%, ., ., 1.2%, -0.1, -5
COc1ccc(-c2cc(NC=O)c3ncc(-c4cccc(OC)c4)n3c2)cc1
→ ., 4.1%, ., ., ?, -0.7, .
NC1=NC(=O)/C(=C/c2cccc(F)c2)S1
→ 9, -3.4%, 8.6, -4%, -3.0%, 0.6, -28
O=C(CCl)Nc1cccc(Oc2ccccc2)c1
→ -2, -0.2%, 0.7, 8%, ., 2.0, -9
Cc1cccc(NC(c2nnc(-c3ccccc3)o2)c2ccc(F)cc2Cl)c1C (stereo not drawn)
→ ., 3.8%, ., ., -0.4%, 2.1, -4
COc1ccc(C(=O)NNC(=O)c2snnc2C)cc1
→ ., -0.6%, -0.1, -20%, ., 0.4, 6
COc1ccc(N2CCN(C(=O)COC(=O)c3oc4ccccc4c3C)CC2)cc1
→ -2, -0.1%, ., ., -2.6%, 0.5, -8
CC(C)N1CCN(c2ccc(S(=O)(=O)N3CCOCC3)cn2)CC1
→ -5, -0.9%, ., 19%, -23%, 0.0, -8
Cc1ccc(CNC(=O)CSc2nc(C)cs2)cc1
→ 7, 1.4%, -3.9, 8%, 0.3%, -0.1, 16
CCOC(=O)C1CCN(c2cc(=O)n(Cc3ccc(F)cc3)c(=O)[nH]2)CC1
→ -4, -0.8%, 0.1, 19%, -1.1%, 0.0, -7
COc1ccc(COC(=O)C2=C(C)NC(=O)NC2c2ccccc2F)cc1 (stereo not drawn)
→ -2, 0.4%, -0.8, 18%, 2.6%, 1.0, 13
O=C(Nc1nnc(SCc2ccc(F)cc2)s1)C1CC(=O)N(c2ccc3c(c2)OCCO3)C1 (stereo not drawn)
→ -1, 6.1%, 5.8, -12%, 1.1%, 1.3, 24
Cc1ccc(N2C(=O)CC(Sc3ncn[nH]3)C2=O)cc1C (stereo not drawn)
→ -10, 0.2%, 10, 50µM*, -0.8%, 3.8, -8

# Four records drawn at random from the list so far:
# Value order – TRPV1 PAM, PINK1 expr mod, Menin MLL FP FL, Sfp inh, ClpP mod, TRPML1 agonist, TRPML1 blocker
COC(=O)c1ccc2nc(-c3ccccc3)c(Cc3ccc(C)cc3)n2c1
→ ., 24%, ., ., 5.3%, 0.7, .
COc1ccc(-c2cc(NC=O)c3ncc(-c4cccc(OC)c4)n3c2)cc1
→ ., 4.1%, ., ., ?, -0.7, .
CC(=O)C1=C(O)C(=O)N(C)C1c1ccccc1F (stereo not drawn)
→ 3, 1.0%, 5.2, 6%, -3.5%, -0.1, -25
Cc1nc2ccccn2c1C(=O)N/N=C/c1ccc([N+](=O)[O-])o1
→ 3, -0.1%, 0.9, -16%, 1.3%, 0.7, -14
